High-throughput results (PubChem BioAssay)
SARS PLP yeast: blocks SARS-CoV papain-like protease in a yeast assay; Potency, µM (top dose mostly 32.9 µM), for inactives: at the top dose activity, positive = growth rescue; AID 485353; S. cerevisiae expressing SARS-CoV PLpro, growth rescue; control for the full effect not named in the record; hit rate 0.19% among 330,000; note: 0% is about no effect; nearly all actives have a fitted effect of over 55% in size; growth read by luminescence after 48 h
Lassa entry inh: inhibitors of Lassa virus binding or cell entry | hit rate 1.2% among 300,000 | Potency, µM (top dose mostly 37.9 µM), without a hit: at the top dose activity change, negative = inhibition, most hits filed as inhibitors | Lassa virus pseudotype entry inhibition, cell reporter; control for the full effect not named in the record | AID 540256; active means well fitted inhibition curve with a large enough effect; inconclusive means small, poorly fitted or top-dose-only effect, or effect the other way; inactive means flat fitted curve, though single readings scatter; tested in HEK293 cells; note: % is set by controls: 0 for no effect and ±100 for the full control effect; nearly all actives have a fitted effect of over 50% in size; luciferase read-out
Cruzain inh Det: cruzain (T. cruzi) inhibition with detergent; purified cruzain, Z-FR-AMC fluorescence, 0.01% Triton; Potency, µM, for the others: max response, negative = inhibition, hits mostly inhibitors; hit rate 0.43% among 200,000; active = well fitted curve in the direction sought with a large enough effect; inconclusive = small, poorly fitted or top-dose-only effect, or another doubt; inactive = no such curve, though single readings can be large; an effect the other way counts as inactive or inconclusive;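 note: plate controls were neutral wells for no effect and buffer without enzyme for full effect; nearly all actives have a fitted effect of over 40% in size; top concentration of the series not given in the record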
Target sequence (P25779 123-467 limits assumed): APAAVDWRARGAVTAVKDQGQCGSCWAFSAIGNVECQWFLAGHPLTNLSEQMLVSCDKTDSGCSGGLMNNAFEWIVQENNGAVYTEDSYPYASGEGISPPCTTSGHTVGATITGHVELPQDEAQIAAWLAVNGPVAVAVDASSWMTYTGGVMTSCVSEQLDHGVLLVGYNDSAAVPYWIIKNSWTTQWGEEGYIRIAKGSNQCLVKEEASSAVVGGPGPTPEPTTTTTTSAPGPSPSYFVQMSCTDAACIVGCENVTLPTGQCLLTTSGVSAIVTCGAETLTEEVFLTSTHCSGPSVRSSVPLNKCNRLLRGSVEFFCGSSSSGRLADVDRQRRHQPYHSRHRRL
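Detergent-containing arm of a paired screen for aggregation-based inhibition: 0.01% Triton X-100 present. Cruzain at 1.5 nM cleaved 2 uM Z-FR-AMC at pH 5.5 with 5 mM DTT; AMC fluorescence gain over 60 s measured activity.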
StopGo reporter: FMDV 2A StopGo reporter, luciferase signal; human cells with a luciferase reporter of 2A StopGo recoding; control for the full effect not named in the record; hit rate 1.2% among 410,000; Potency, µM (doses to about 57.9 µM), inactives show top-dose signal change, negative = less light; active = well fitted falling curve with a large enough effect; inconclusive = small, poorly fitted or top-dose-only effect; inactive = no such curve, though single readings can be large or run the other way; tested in HEK293T cells; note: % is set by controls: 0 for no effect and ±100 for the full control effect; nearly all actives have a fitted effect of over 45% in size; luciferase light after 4 h
RE007 growth inh: less growth of the S. pombe RE007 Vpr strain. hit rate 0.21% among 360,000. S. pombe RE007 Vpr strain, BacTiter-Glo ATP luminescence, 24 h; control for the full effect not named in the record. Potency, µM (titrated, usually from 92.2 µM), without a hit: top-dose activity change, negative = less growth; active = well fitted falling curve with a large enough effect; inconclusive = small, poorly fitted or top-dose-only effect; inactive = no such curve, though single readings can be large or run the other way;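 note: % is set by controls: 0 for no effect and ±100 for the full control effect; nearly all actives have a fitted effect of over 50% in size; the assay follows cell death caused by Vpr and the record does not say whether a fall means rescue or toxicity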
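Fission yeast RE007 carrying one integrated HIV-1 vpr copy, seeded at OD 0.01 in PMG+AL medium with 23 nL pinned compound. Grown 24 h at 30 degrees; viability read by BacTiter-Glo luminescence after 5 min.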
MARV entry inh: blocks Marburg virus binding to or entry into cells; Marburg virus pseudotyped entry inhibition, cell reporter; control for the full effect not named in the record; about a third of the inactives were read at about 46 µM; Potency, µM (titrated, usually from 37.8 µM), without a hit: at the top dose activity change, negative = inhibition, most hits filed as inhibitors; hit rate 1.8% among 300,000; AID 540276; active = well fitted inhibition curve with a large enough effect; inconclusive = small, poorly fitted or top-dose-only effect, or effect the other way; inactive = flat fitted curve, though single readings scatter; tested in HEK293 cells; about a fifth of its hits are not listed in these tables; note: % is set by controls: 0 for no effect and ±100 for the full control effect; luciferase read-out
Cruzain inh noDet: blocks cruzain activity in detergent-free assay. P25779. purified cruzain, Z-FR-AMC fluorescence, no detergent. Potency, µM, for the others: max response, negative = inhibition, most hits filed as inhibitors. hit rate 2.3% among 200,000; active = well fitted curve in the direction sought with a large enough effect; inconclusive = small, poorly fitted or top-dose-only effect, or another doubt; inactive = no such curve, though single readings can be large; an effect the other way counts as inactive or inconclusive;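 note: plate controls were enzyme without inhibitor for no effect and buffer without enzyme for full effect; nearly all actives have a fitted effect of over 40% in size; top concentration of the series not given in the record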
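Detergent-free condition (0.00005% Triton X-100) in acetate buffer pH 5.5 with DTT. 1.5 nM enzyme and compound were pre-mixed 15 min, then 2 uM Z-FR-AMC substrate added; reaction progress from fluorescence change between first and third reads (60 s).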
NS1 inh: inhibitors of influenza NS1 protein function. hit rate 0.4% among 270,000. Potency, µM (titrated, usually from 46.1 µM), without a hit: at the highest dose activity, positive = more growth. S. cerevisiae slowed by influenza A NS1, growth recovery by OD600; note: actives are rising curves; nearly all actives have a fitted effect of over 50% in size
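S. cerevisiae expressing influenza A NS1, grown in glucose, washed, then diluted 1:100 into pH 6.0 -URA galactose medium with 23 nl compound. Growth recovery read as OD600; NS1-free strain serves as control.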
Numbers without * were called inactive; ? = inconclusive; nt = not tested or not shown; [ ] = remark or other dose. Unless noted, calls come from the whole dose curve; as a rule, active means well fitted rising curve with a large enough effect; inconclusive means small, poorly fitted or top-dose-only effect; inactive means no such curve, though single readings can be large or run the other way. Potency is the fitted concentration of half-maximal effect. Hits appear at their usual frequency (roughly 4.7% active in at least one column).

SMILES | SARS PLP yeast | Lassa entry inh | Cruzain inh Det | StopGo reporter | RE007 growth inh | MARV entry inh | Cruzain inh noDet | NS1 inh
O=C(OCC(=O)N(Cc1ccccc1)Cc1ccccc1)c1ccccc1NCCO | -1% | 0% | nt | 22% | 13% | ? | nt | nt
O=C(CCl)NCC1CCCO1 (stereo unspecified) | 0% | -2% | nt | -2% | -4% | 13%[46.1 µM] | nt | nt
CC12C(=O)N(c3nccs3)C(=O)C1(C)C1CCC2O1 (stereo unspecified) | nt | -11% | nt | -1% | -6% | -27% | nt | nt
Cc1c(CCO)c(=O)n2c([nH]c3ccccc32)c1C#N | 3% | nt | nt | -22% | -23% | nt | nt | 2%
CCN1C(=O)C(CC(=O)Nc2ccc(OC)cc2)N(CCc2ccc(OC)cc2)C1=S (stereo unspecified) | -17% | ? | nt | -20% | -5% | -39%[46.1 µM] | nt | nt
Cc1ccc(C)c(NC(=O)c2cc(-c3ccccc3)nn2-c2ccccc2)c1 | -31% | ? | -7.4% | ? | -15% | 11µM* | 6% | -8%
CCOCCOCCC(C(=O)OCC)P(=O)(c1ccccc1)c1ccccc1 (stereo unspecified) | 4% | 11% | 2.0% | 0% | 11% | 2% | 12% | 4%
CCCN1CCN(C(=O)C(NC(=O)c2ccco2)C(C)C)CC1 (stereo unspecified) | -6% | 3% | nt | 10% | -2% | 15%[46.1 µM] | nt | 5%
CCc1ccc(NS(=O)(=O)c2ccc(OC)c3ncccc23)cc1 | -9% | -10%[46.1 µM] | nt | 17% | -1% | 7%[46.1 µM] | nt | 0%
C=CCNC(=O)c1c(O)c2cccc3c2n(c1=O)CCC3 | -7% | nt | nt | 11% | 5% | nt | nt | -17%
O=C(OCC(=O)N1CCCC1)c1c(Cl)cccc1Cl | -2% | 1%[46.1 µM] | nt | 9% | -11% | 8%[46.1 µM] | nt | 13%
Cc1ccc(NC(=S)Nc2cccc3cnccc23)cc1 | -3% | nt | nt | 13% | -13% | nt | nt | -3%
COc1ccc(OCCC(=O)Nc2nccs2)cc1 | 1% | ? | nt | -2% | 51% | 20%[46.1 µM] | nt | -2%
COc1cccc(-c2cc(C(=O)NCCN3CCOCC3)no2)c1 | -3% | -13% | -1.8% | 39%[activator] | 13% | 18% | -6% | -6%
Cc1c(C(=O)Nc2ccc(F)cc2)oc2ccc(S(=O)(=O)N3CC(C)CC(C)C3)cc12 (stereo unspecified) | 0% | ? | -1.3% | nt | 1% | ? | -24% | 9%
COCCCNC(=S)N1CCN(c2nc(C)nc3sc4c(c23)CCCC4)CC1 | -5% | nt | nt | -23% | -3% | nt | nt | -66%
CC1CCC(NC(=O)c2ccc(COc3ccccc3)o2)CC1 (stereo unspecified) | -1% | -6% | nt | -18% | -19% | 3%[46.1 µM] | nt | nt
CCOC(=O)CSc1nc2sc(C(=O)O)c(C)c2c(=O)[nH]1 | -9% | nt | -2.0% | -4% | 7% | nt | -16% | 4%
CCc1nc(SCC(=O)NCCc2ccccc2)n[nH]1 | 3% | 10% | 3.1% | 0% | 21% | 24%[46.1 µM] | 4% | 1%
CC(=O)OC1OCCOC1NC(=S)Nc1ccc(C)cc1 (stereo unspecified) | 0% | -7% | nt | 10% | 3% | 2% | nt | 2%
CC1Cc2ccccc2N1C(=O)C1CCN(S(=O)(=O)Cc2ccccc2)CC1 (stereo unspecified) | -5% | -20% | 3.3% | -12% | 14% | -4%[46.1 µM] | -4% | 0%
COc1ccc(Br)cc1C(=O)Nc1nnn(C)n1 | -14% | 3% | 1.2% | -4% | -6% | 1% | -4% | -6%
S=C(Nc1ccccc1)N1CCN(C(=S)c2ccccc2)CC1 | 0% | ? | nt | -8% | 1% | 8%[46.1 µM] | nt | 0%
CCc1c(C)[nH]c2nc3ccccc3n2c1=O | -8% | 24% | -0.7% | -3% | -8% | ? | 5% | -61%
COc1cccc(/C=C/C(=O)OCC(=O)c2cc(C)n(CC3CCCO3)c2C)c1OC (stereo unspecified) | -7% | nt | -6.2% | -20% | 7% | 5% | 13% | 16%

An excerpt of these results, as tab-separated lines:
canonical_smiles	SARS PLP yeast	Lassa entry inh	Cruzain inh Det	StopGo reporter	RE007 growth inh	MARV entry inh	Cruzain inh noDet	NS1 inh
O=C(OCC(=O)N1CCCC1)c1c(Cl)cccc1Cl	-2%	1%[46.1 µM]	nt	9%	-11%	8%[46.1 µM]	nt	13%
Cc1ccc(NC(=S)Nc2cccc3cnccc23)cc1	-3%	nt	nt	13%	-13%	nt	nt	-3%
COc1ccc(OCCC(=O)Nc2nccs2)cc1	1%	?	nt	-2%	51%	20%[46.1 µM]	nt	-2%
COc1cccc(-c2cc(C(=O)NCCN3CCOCC3)no2)c1	-3%	-13%	-1.8%	39%[activator]	13%	18%	-6%	-6%
Cc1c(C(=O)Nc2ccc(F)cc2)oc2ccc(S(=O)(=O)N3CC(C)CC(C)C3)cc12 (stereo unspecified)	0%	?	-1.3%	nt	1%	?	-24%	9%
COCCCNC(=S)N1CCN(c2nc(C)nc3sc4c(c23)CCCC4)CC1	-5%	nt	nt	-23%	-3%	nt	nt	-66%
CC1CCC(NC(=O)c2ccc(COc3ccccc3)o2)CC1 (stereo unspecified)	-1%	-6%	nt	-18%	-19%	3%[46.1 µM]	nt	nt
CCOC(=O)CSc1nc2sc(C(=O)O)c(C)c2c(=O)[nH]1	-9%	nt	-2.0%	-4%	7%	nt	-16%	4%
CCc1nc(SCC(=O)NCCc2ccccc2)n[nH]1	3%	10%	3.1%	0%	21%	24%[46.1 µM]	4%	1%
CC(=O)OC1OCCOC1NC(=S)Nc1ccc(C)cc1 (stereo unspecified)	0%	-7%	nt	10%	3%	2%	nt	2%
CC1Cc2ccccc2N1C(=O)C1CCN(S(=O)(=O)Cc2ccccc2)CC1 (stereo unspecified)	-5%	-20%	3.3%	-12%	14%	-4%[46.1 µM]	-4%	0%
COc1ccc(Br)cc1C(=O)Nc1nnn(C)n1	-14%	3%	1.2%	-4%	-6%	1%	-4%	-6%
S=C(Nc1ccccc1)N1CCN(C(=S)c2ccccc2)CC1	0%	?	nt	-8%	1%	8%[46.1 µM]	nt	0%
CCc1c(C)[nH]c2nc3ccccc3n2c1=O	-8%	24%	-0.7%	-3%	-8%	?	5%	-61%
COc1cccc(/C=C/C(=O)OCC(=O)c2cc(C)n(CC3CCCO3)c2C)c1OC (stereo unspecified)	-7%	nt	-6.2%	-20%	7%	5%	13%	16%

(cont.)
SMILES | SARS PLP yeast | Lassa entry inh | Cruzain inh Det | StopGo reporter | RE007 growth inh | MARV entry inh | Cruzain inh noDet | NS1 inh
c1cc(-c2nnc(-c3ccncc3)o2)ccn1 | -6% | -23% | 9.6% | 10% | 0% | 10% | -5% | -3%
Cc1c(/C=N/NC(=O)CNc2ccccc2)c2ccccn2c1C(=O)c1ccncc1 | 8% | 0% | -8.0% | -1% | -13% | 9% | ? | 18%
COc1ccc(N2CCN(CC(=O)Nc3sccc3C#N)CC2)cc1 | 13% | 14% | -3.1% | -21% | nt | 4% | -17% | 21%
CC(C)N1C(=O)C(=O)N(CC(=O)N2c3ccccc3NC(=O)CC2C)C1=O (stereo unspecified) | 2% | 9% | nt | 0% | -15% | 16% | nt | nt
CCc1nc(SCC(=O)Nc2ccc(N(CC)CC)cc2)n[nH]1 | nt | -2% | nt | -17% | -6% | 7%[46.1 µM] | nt | nt
COc1ccc(C=NCCC2(O)CC(C)N(C)CC2C)cc1 (stereo unspecified) | 4% | ? | 0.1% | 6% | -1% | 15% | 0% | 10%
CC(CCc1ccccc1)NC(=O)C1CCCN(c2nnc(-n3cccc3)s2)C1 (stereo unspecified) | 4% | nt | -2.4% | -11% | 9% | nt | -8% | -26%
